# Menin MLL FP FL – displaces fluorescein MLL peptide from human menin. 290,000 tested, under 10 active. Fluorescence polarization, fluorescein-MLL peptide displacement from menin. AID 1766. FP activity change, % at 61.4 µM; inconclusive = falling polarisation curve, or a change in total fluorescence; inactive = total fluorescence flat and polarisation flat or rising; no compound was filed as active; the % refers to the polarisation; negative = inhibition;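 further: % of control where 0% means no effect; inhibitors lower the polarisation; unlabelled MLL peptide was the positive control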
# TRPML1 agonist – activates the human TRPML1 channel; 410,000 compounds, 0.12% hits; TRPML1-expressing cells, Ca2+ dye fluorescence, FDSS; host cell line not named in the record; reference of the full effect not given here; activation, % (concentration not given with the values); AID 624414; Q9GZU1; in the data active = activation above about 50%; inconclusive = about 30% to 50%; inactive = below about 30%; further: 0% is about no effect; the text of the record puts the active cut at 80%
# Target sequence (Q9GZU1 whole entry, looked up): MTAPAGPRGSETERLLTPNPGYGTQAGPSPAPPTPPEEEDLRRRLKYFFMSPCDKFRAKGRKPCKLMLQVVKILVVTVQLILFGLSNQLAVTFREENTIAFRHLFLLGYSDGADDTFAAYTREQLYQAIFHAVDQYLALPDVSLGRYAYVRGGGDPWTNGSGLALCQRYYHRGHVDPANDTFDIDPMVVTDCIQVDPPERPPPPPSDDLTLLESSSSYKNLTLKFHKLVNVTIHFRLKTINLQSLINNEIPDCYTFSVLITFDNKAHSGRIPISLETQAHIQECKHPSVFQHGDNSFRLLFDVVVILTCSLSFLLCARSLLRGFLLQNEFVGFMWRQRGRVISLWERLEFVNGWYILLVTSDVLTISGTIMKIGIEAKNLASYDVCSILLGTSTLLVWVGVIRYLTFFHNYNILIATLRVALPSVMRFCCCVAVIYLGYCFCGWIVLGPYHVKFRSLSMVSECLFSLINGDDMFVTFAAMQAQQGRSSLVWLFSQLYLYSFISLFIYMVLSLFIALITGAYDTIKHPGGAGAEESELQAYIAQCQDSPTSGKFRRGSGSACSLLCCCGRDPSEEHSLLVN
#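 TRPML1-DL cells, Tet-induced overnight (~16 h, 37 degrees C), loaded 45-90 min at room temperature with Ca8 no-wash calcium dye plus quencher. FDSS fluorescence: 10 s baseline, compound pin-transfer, 110 s agonist read, then EC80 54-4 (4uM final) and 110 s antagonist read.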
# TRPML1 inh – blocks the human TRPML1 channel. Q9GZU1. TRPML1-inducible cells, Ca2+ dye fluorescence, FDSS; hits give low values; inhibition of EC80 agonist-evoked calcium signal. activity change, negative = inhibition, % (no concentration beside the values). 390,000 compounds, 0.02% hits; in the data active means activity change below about -50%; inconclusive means about -30% to -50%; inactive means above about -30%;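 further: stimulus is agonist 54-4 at its EC80 concentration; on the % scale 0 is the no-effect control and ±100 the full control effect; compound concentration not given in the record; the text of the record puts the active cut at -80%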
#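 TRPML1-DL cells, Tet-induced overnight (~16 h, 37 °C) at 1,500 cells/well, were loaded with Ca8 no-wash dye plus quencher for 45-90 min at room temperature. Compounds were pinned during FDSS kinetic reading; agonist 54-4 at EC80 (4 uM final) then added.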
# gsp ag – gsp mutant agonism. gsp mutant cells, cAMP HTRF, 30 min; control for the full effect not named in the record. 340,000 compounds, 0.13% hits. Potency, µM (highest dose often 76.9 µM), inactives show at the top dose activation (cAMP increase), actives largely listed as activators. AID 624287; active = well fitted activation curve with a large enough effect; inconclusive = small, poorly fitted or top-dose-only effect, or another doubt; inactive = no such curve, though single readings can be large or run the other way; cell line not stated here;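 further: phosphodiesterase inhibitor Ro 20-1724 added with compounds to block cAMP breakdown; potency means the concentration at half of the fitted maximal effect; nearly all actives have a fitted effect of over 60% in size; about a fifth of the inactives were tested at one dose only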
#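 Cells stably selected in G418 were plated at 2000/well, grown 16-24 hr, then given compounds in DMSO with the PDE inhibitor […] (300 uM solution added) for 30 min at 37C; cAMP was read by HTRF.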
# ClpP mod – qHTS Assay for Activators of ClpP; purified B. subtilis ClpP, FRET peptide cleavage, 20 min; 340,000 compounds, 1.9% hits; Potency, µM (highest dose often 57.5 µM), inactives show at the highest dose activity change, negative = active; ATP-dependent Clp protease proteolytic subunit (Bacillus subtilis (strain 168)), P80244; AID 651965, 2013; active = well fitted falling curve with a large enough effect; inconclusive = small, poorly fitted or top-dose-only effect; inactive = no such curve, though single readings can be large or run the other way; further: potency means the concentration at half of the fitted maximal effect; the source files actives as falling curves though it sought activators and does not explain the sign; nearly all actives have a fitted effect of over 65% in size; many hits overshoot -100%
# Target sequence (P80244 whole entry, looked up): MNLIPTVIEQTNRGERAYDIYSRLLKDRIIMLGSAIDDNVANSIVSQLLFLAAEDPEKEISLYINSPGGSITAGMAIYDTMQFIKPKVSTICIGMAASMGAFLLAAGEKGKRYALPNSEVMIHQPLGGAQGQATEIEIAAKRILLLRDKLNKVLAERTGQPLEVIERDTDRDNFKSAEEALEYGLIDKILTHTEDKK
#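 ClpP 10 microg/mL final, pH 8 Tris/KCl buffer with BSA, glycerol, Tween-20; compound pinned in; FRET-FV substrate; RT 20 min; Ex320/Em430; ΔFRET vs ADEP 5.8 microM, DMSO, no enzyme.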
# gsp antagonist – gsp mutant antagonism | 340,000 compounds, 0.4% hits | Potency, µM (highest dose often 76.9 µM), inactives show top-dose activity change, negative = inhibition, hits mostly inhibitors | AID 624288 | gsp-mutant cells, cAMP HTRF, 30 min; control for the full effect not named in the record; active = falling curve of any shape with a large fitted effect; inconclusive = falling curve, mostly with a smaller effect; inactive = flat or rising curve; cell line not stated here;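 further: intracellular cAMP measured with PDE inhibitor Ro 20-1724 present during compound exposure; potency means the concentration at half of the fitted maximal effect; on the % scale 0 is the no-effect control and ±100 the full control effect; nearly all actives have a fitted effect of over 65% in size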
#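 Cells, 2000/well, grown 16–24 h in DMEM 10% FBS with 0.5 mg/ml G418, then compounds plus […] (300 uM addition stock), 30 min at 37C. cAMP read by HTRF (cAMP-d2 and anti-cAMP antibody-K in lysis buffer) after 30 min RT.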
# The depositor's hits bear a star; ? = inconclusive; / = not tested or not shown; [ ] = dose if it differs, or a comment.
No.	SMILES	Menin MLL FP FL	TRPML1 agonist	TRPML1 inh	gsp ag	ClpP mod	gsp antagonist
1	CNCc1c(C)nn(-c2ccccc2)c1C	-4.3	-0.3	-12	-10%[15.4 µM]	/	10%
2	CCOC(=O)N/N=C(\C)c1ccc(-n2cnnn2)cc1	1.0	0.2	14	21%[15.4 µM]	/	/
3	Cc1cc(C(=O)OCn2nnc3ccccc3c2=O)c(C)n1-c1ccccc1	8.1	1.9	14	-58%[inhibitor]	-4.7%	7%[15.4 µM]
4	Cc1nc(-c2ccc(S(=O)(=O)N3CCCN(CCc4ccccc4)CC3)s2)cs1	5.2	1.9	5	0%[15.4 µM]	/	-13%
5	COC(=O)Cc1c(C)c2ccc(OCC(=O)N3CCCC(C)C3)c(C)c2oc1=O (configuration not stated)	/	-0.2	-9	-14%	3.7%	?
6	CC(=O)Nc1cccc(NC(=O)CSc2ccc(-c3sc(-c4ccccc4)nc3C)nn2)c1	/	2.6	-11	/	?	/
7	CCC(=O)N1CCN(c2ccccc2NC(=S)NC(=O)c2ccco2)CC1	/	0.2	8	-32%[inhibitor]	-1.1%	?
8	Cc1ccc(C(=O)N/N=C\C=C\c2ccc(Br)cc2)cn1	-4.6	1.5	7	-9%	4.1%	-11%
9	O=C(NC(=S)NCCN1CCOCC1)c1ccc(Cl)cc1	-0.9	0.3	-6	-52%[inhibitor]	/	5%
10	Cc1cc(C)c(S(=O)(=O)N2CCC3(CC2)OCCN3S(=O)(=O)c2cccs2)c(C)c1	/	0.1	83	9%[15.4 µM]	1.1%	-3%
11	Cc1[nH]n(-c2ccccc2)c(=O)c1N=Nc1ccc(C(=O)O)cc1	-2.5	0.3	12	2%	1.6%	-19%
12	Cc1cc(O)c(C(c2cccc(F)c2)N2CCN(c3ccccc3)CC2)c(=O)n1Cc1ccco1 (configuration not stated)	/	1.0	0	/	-2.4%	/
13	O=C(Cn1c(=O)n(Cc2ccccc2)c(=O)c2sc3ccccc3c21)Nc1ccccc1F	/	-0.7	-10	/	28µM*	/
14	Cc1ccc(-c2nnc(-c3ccccc3)c(N3CCOCC3)n2)cc1	48[activator]	1.0	-8	?	-0.4%	-7%
15	O=C(NCCN1CCCCCC1)C1CCCN1S(=O)(=O)c1cccc2nsnc12 (configuration not stated)	-3.2	0.8	-13	-13%[15.4 µM]	/	-16%

# Some of the entries above, reformatted:
# Screens in order – Menin MLL FP FL | TRPML1 agonist | TRPML1 inh | gsp ag | ClpP mod | gsp antagonist
7: CCC(=O)N1CCN(c2ccccc2NC(=S)NC(=O)c2ccco2)CC1
    / | 0.2 | 8 | -32%[inhibitor] | -1.1% | ?
8: Cc1ccc(C(=O)N/N=C\C=C\c2ccc(Br)cc2)cn1
    -4.6 | 1.5 | 7 | -9% | 4.1% | -11%
9: O=C(NC(=S)NCCN1CCOCC1)c1ccc(Cl)cc1
    -0.9 | 0.3 | -6 | -52%[inhibitor] | / | 5%
10: Cc1cc(C)c(S(=O)(=O)N2CCC3(CC2)OCCN3S(=O)(=O)c2cccs2)c(C)c1
    / | 0.1 | 83 | 9%[15.4 µM] | 1.1% | -3%

# Next results:
No.	SMILES	Menin MLL FP FL	TRPML1 agonist	TRPML1 inh	gsp ag	ClpP mod	gsp antagonist
16	CCCCNC(=O)CCCCC(=O)N/N=C/c1cccc(Cl)c1	/	1.6	-27	4%	1.4%	6%
17	COC(=O)C1=C(N)Oc2c(oc(CO)cc2=O)C1c1ccccc1F (configuration not stated)	-1.0	-0.6	13	0%	-0.8%	-11%
18	CC(=O)Nc1ccc(C(C#N)=Cc2ccc(N(C)CCC#N)cc2)cc1	/	0.2	14	2%	-2.6%	/
19	C[C@H](CO)N1C[C@H](C)[C@@H](CN(C)Cc2ccc3c(c2)OCO3)Oc2c(NC(=O)Cc3ccccc3)cccc2C1=O	/	-1.1	8	-23%	0.0%	-36%
20	O=C(NC1CCCCCCC1)c1cc(COc2ccc3ncccc3c2)on1	-2.9	2.2	-12	3%[15.4 µM]	/	40µM*
21	CC(c1nnc(SCC(=O)Nc2cccnc2Cl)n1-c1ccccc1)N(C)C (configuration not stated)	-1.0	2.5	-17	-18%[15.4 µM]	/	5%
22	COc1ccc2[nH]cc(/C=C/C(=O)c3ccccc3)c2c1	?	0.0	-5	-17%[15.4 µM]	0.1%	4%
23	COCCCNC(=O)c1oc2ccc(S(=O)(=O)N3CCOCC3)cc2c1C	-4.4	-1.1	10	5%[15.4 µM]	0.9%	-33%
24	CCN(CC(=O)NCc1ccc(F)cc1)C(=O)/C=C/c1ccc(S(=O)(=O)N(CC)CC)cc1	0.9	-0.4	-11	8%	/	-1%
25	CCN(C(=O)COC(=O)CNC(=O)c1ccc(F)cc1)C1CCS(=O)(=O)C1 (configuration not stated)	1.1	-0.3	-6	17%[15.4 µM]	/	/
26	CCOC(=O)c1c(NC(C)=O)sc2c(OC(C)=O)cccc12	-3.2	0.2	-1	-9%	-4.2%	3%
27	CCC(C)NC(=O)C1CC(c2cccc(OC)c2)=NO1 (configuration not stated)	0.8	2.3	-6	-13%	-3.9%	-3%
28	C[C@H](CO)N1C[C@H](C)[C@H](CN(C)Cc2cccc(F)c2)Oc2ncc(Br)cc2C1=O	/	0.6	17	-37%[inhibitor]	-2.7%	/
29	Cc1cccc(-n2ccc(=O)c(C(=O)Nc3ccc(S(=O)(=O)Nc4nccs4)cc3)n2)c1	4.0	-0.2	-6	?	-0.6%	-12%
30	CC(Oc1ccccc1Cl)C(=O)/C=C/N(C)C (configuration not stated)	0.4	3.2	-6	-12%	-2.0%	-15%
31	O=C(COc1ccc2c(c1)CCC2)NCc1ccc(Cl)cc1	3.9	5.9	11	-3%	-1.0%	-6%
32	COc1ccc(CN2CCC3C=CCC(C(=O)O)C3C2=O)cc1OC (configuration not stated)	-2.8	0.6	-8	/	/	/
33	O=C(COC(=O)Cn1cnc2ccccc2c1=O)NCc1ccccc1Cl	-0.2	0.7	-15	-49%[inhibitor]	3.7%	-28%
34	CCOC(=O)CSc1nc(=O)n2cc(C)ccc2n1	5.6	-0.4	1	10%[15.4 µM]	/	2%
35	O=S(=O)(Nc1ccccn1)c1ccc(Cl)c2ccccc12	-2.8	0.8	-29	?	/	-2%
36	CCc1nc(SCC(=O)Nc2ccc(F)cc2F)c2c(=O)n(C)c(=O)n(C)c2n1	6.9	0.2	24	-9%	-0.8%	-10%
37	CC(=O)c1coc2ccc(OCCN3CCCCC3)cc12	2.8	0.9	-4	-27%	-3.9%	4%
38	COc1ccccc1-c1cc(C(=O)NC2CCN(C)CC2)c2ccc(Cl)c(C)c2n1	0.3	0.4	7	0%	-12%	8%
39	O=C(NCC1COc2ccccc2O1)c1cn(Cc2ccc(F)cc2)nn1 (configuration not stated)	1.7	-0.2	4	-41%[inhibitor]	-4.8%	6%
40	Oc1ccc(Cl)cc1CNC1CCCCC1	/	0.9	9	10%	/	1%
41	Cc1ccc(F)cc1NC(=O)c1ccc(OCC2CCCO2)cc1 (configuration not stated)	/	0.3	-7	11%	-1.8%	0%
42	COc1ccccc1NC(=O)CSc1nnc(-c2ccc(NC(C)=O)cc2)n1C	0.9	-0.9	4	1%	0.9%	-3%
43	Cc1ccc(CNS(=O)(=O)c2ccc([N+](=O)[O-])cc2)cc1	3.7	1.1	1	-5%	-1.7%	-14%
44	Cc1ccc(N(C(=O)c2snc(C(N)=O)c2N)C(C(=O)NCCC(C)C)c2ccco2)cc1 (configuration not stated)	-1.0	3.2	2	-26%	-17%	?
45	CC(C)CN1CC(C(=O)O)CC1=O (configuration not stated)	-5.9	-0.3	4	-23%[15.4 µM]	/	-2%
46	C/C(=N\NC(=O)c1cc(-c2ccc(Cl)s2)[nH]n1)c1ccncc1	-3.1	0.7	-16	16%	/	-22%
47	COC(=O)C1(C)NC(c2ccccc2F)C2C(=O)N(c3ccccc3)C(=O)C21 (configuration not stated)	-9.5	-0.4	8	-12%	0.9%	9%
48	COc1ccccc1N(Cc1cc2ccc(C)cc2[nH]c1=O)C(C)=O	0.8	-0.4	6	-7%	-29%	-5%
49	COCCN(Cc1nc(-c2ccc(-c3ccccc3)cc2)oc1C)C(C)C	1.3	/	/	-34%[inhibitor]	4.0%	-10%
50	C/C(=N\NC(=O)c1ccc(C)cc1C)c1ccc(-n2ccnc2)cc1	2.0	1.4	10	-29%	-3.3%	1%
51	CC1(C)CC(=O)C2=C(C1)N(c1ncn[nH]1)C(N)=C(C#N)C2c1ccccc1 (configuration not stated)	1.2	-0.5	7	-6%[15.4 µM]	0.2%	2%
52	COc1ccc(CCNC(=O)CN(c2ccc(OC)c(OC)c2)S(=O)(=O)c2ccc(C)cc2)cc1	0.2	0.7	-8	-26%	/	11%
53	COc1ccc(/C=C/c2ccccc2)cc1[C@H]1[C@@H]2C=CCC[C@@]2(C)C(=O)N1Cc1ccccc1	3.1	-0.4	-8	/	3.5%	-13%
54	CCN1CCN(C(=O)Cn2ncc3c4ccccc4n(Cc4c(C)cc(C)cc4C)c3c2=O)CC1	/	-0.4	8	/	4.0%	/
55	COc1ccccc1CNC(=O)CCn1c(=O)c2ccccc2n(CC(=O)Nc2cccc(Cl)c2)c1=O	/	-0.1	1	/	-5.9%	/
56	O=C(Nc1cccnc1Oc1ncnc2cc(Cl)ccc12)c1ccc(F)cc1	4.4	-0.3	8	-4%[15.4 µM]	0.8%	11%
57	COc1ccc(/C=C(\C#N)c2nc3ccccc3[nH]2)cc1O	-0.6	1.0	14	-17%	/	2%
58	O=C(CS(=O)(=O)c1cn(CC(=O)N2CCOCC2)c2ccccc12)Nc1ccccc1F	/	-0.8	-9	2%[15.4 µM]	-2.4%	-3%
59	CC(C)(C)c1ccc(C(=O)Nc2ccccc2Cl)cc1	0.0	2.1	-19	-22%	0.3%	-2%
60	Cc1ccc(C(=O)CSc2nnc(C)s2)cc1	4.6	-0.4	-13	-6%[15.4 µM]	1.8%	-9%
61	COc1ccc(C)cc1C1=CC(=O)C[C@H](c2ccc(F)cc2)C1	/	3.2	51	34%	-6.2%	-3%
62	O=S1(=O)c2ccccc2N(Cc2cccc(F)c2)c2ccccc21	/	1.6	-24	/	-0.8%	/
63	O=C(NCCCCc1ccccc1)c1cccc(NC(=O)C2CCCCC2)c1	/	0.9	-7	/	-0.5%	-10%
64	O=C(Cn1nnc2ccccc2c1=O)N1CCOCC1	-5.2	0.8	4	21%[15.4 µM]	/	/
65	CCOc1ccc(C2c3c(oc4ccc(C)cc4c3=O)C(=O)N2Cc2ccc3c(c2)OCO3)cc1OC (configuration not stated)	/	0.3	17	/	0.7%	/

# Assay outcomes deposited in PubChem BioAssay by National Center for Advancing Translational Sciences (NCATS).
